Screens: PubChem, ICCB-Longwood Screening Facility, Harvard Medical School
S aureus helic: inhibitors of S. aureus replicative helicase, primary screen, biochemical, fluorescence unwinding readout. purified S. aureus helicase, fluorescence unwinding assay; about half of the hits fall short of the stated cut. inhibition, %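 (tested at about 80 µM)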. hit rate 0.05% among 120,000. AID 485395, 2010;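 active = both duplicates at 50% or more, or one of them with a favoured structure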;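 also: 0% = mean of negative control wells and 100% = mean of positive control wells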
MgrA-DNA mod: S. aureus MgrA activity modulators, primary screen, biochemical, S. aureus Newman, fluorescence polarization | AID 602314, 2012 | MgrA-DNA binding | hit rate 0.13% among 84,000 | inhibition, %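 (about 10 µg/mL by stock and volumes)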;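 active = above 50% in either of two replicates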;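 also: 0% = protein plus DNA without compound and 100% = DNA alone without protein; higher means less MgrA bound to DNA so lower polarization; one replicate is shown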
Starred values were filed as active, the others as inactive; nt = not tested or not shown. Not all compounds are listed, so the mix of outcomes need not match the whole.

nr	molecule	S aureus helic	MgrA-DNA mod
1	CCC1CSc2nc3ccsc3c(=O)n21 (centres undefined)	nt	-0.7
2	O=C(O)CCSCSCCC(=O)O	nt	-0.4
3	O=C1c2ccccc2C(=O)N1CNc1cccc(Cl)c1	nt	-4.0
4	CC1(C)CNC(=O)c2sc(N3CCCCC3)nc2C1	16	3.8
5	N/C(=N\S(=O)(=O)c1cc(C(F)(F)F)cc(C(F)(F)F)c1)c1cccs1	nt	-3.0
6	CC1Cc2ccccc2N1C(=O)CSc1cccc[n+]1[O-] (centres undefined)	-12	nt
7	O=C(O)C1C2C=CC3(CN(CCc4ccccc4)C(=O)C13)O2 (centres undefined)	9	-0.8
8	Cc1ccc(C(=O)N(C)Cc2ccccc2)c(Cl)c1	13	0.7

Further compounds:
nr	molecule	S aureus helic	MgrA-DNA mod
9	CN(CCC#N)C(=O)Cn1ncc2c(=O)oc3ccccc3c21	4	nt
10	O=C(Nc1ccc(C(F)(F)F)cc1)O/N=C/c1c(Cl)cccc1Cl	nt	2.2
11	O=C(CC1(O)C(=O)Nc2ccccc21)C1CC2C=CC1C2 (centres undefined)	-2	2.3
12	CCOC(=O)c1cc(-c2ccc(F)cc2)n(CC(=O)NC2CCCC(C)C2C)c1C (centres undefined)	6	-5.6
13	O=S(=O)(c1ccccc1)c1ccc(O)cc1	5	1.8
14	CC(C)NCC(=O)Nc1ccc(S(N)(=O)=O)cc1	-8	nt
15	O=C(NCC(c1ccco1)N1CCCC1)c1ccc(-c2nc3ccccc3s2)s1 (centres undefined)	-5	nt
16	O=C(NCc1ccco1)C(c1ccccc1)N(C(=O)Cc1cccs1)c1cccnc1 (centres undefined)	3	0.6

Other results
nr	molecule	S aureus helic	MgrA-DNA mod
17	N#Cc1c(N)nc(SCC(N)=O)c(C#N)c1-c1ccc(Br)cc1	nt	0.8
18	O=C(O)c1ccc(NC(=O)C2CC(=O)N(CCc3ccccc3)C(=Nc3ccccc3)S2)cc1 (centres undefined)	nt	0.4
19	O=C(COC(=O)c1cccc2ccccc12)NC1CCS(=O)(=O)C1 (centres undefined)	7	nt
20	CC1CCCC(C)N1C(=O)CN(C)S(=O)(=O)c1ccc(Cl)cc1 (centres undefined)	2	2.4
21	O=C(O)Cn1c(=O)oc2cc(S(=O)(=O)N3CCOCC3)ccc21	5	-7.5
22	N#Cc1oc2ccccc2c1NC(=O)COC(=O)c1ccc(N2C(=O)c3ccccc3C2=O)cc1	8	nt
23	CCOC(=O)NC(=S)N1C(C)CCCC1C (centres undefined)	nt	3.6
24	COC(=O)c1ccc(CSc2nc(-c3cccs3)nc3c2c(=O)n(C)c(=O)n3C)o1	17	-5.2

Continuation:
nr	molecule	S aureus helic	MgrA-DNA mod
25	CN(C)S(=O)(=O)c1cc(C(=O)Nc2nccs2)c(Cl)cc1Cl	9	nt
26	COc1ccc(/C=C2/N=C(c3ccccc3)OC2=O)s1	nt	1.6
27	c1ccc2c(CNn3cnnc3)cccc2c1	14	3.0
28	Cc1[nH]nc2ncc(C(=O)c3ccccc3O)cc12	-5	nt
29	C=C1SC(Nc2c(C)cccc2C)=NC12CCCCC2	nt	-2.2
30	CCCc1cc(NCc2cccnc2)n2c(nc3ccccc32)c1C#N	-1	2.6
31	c1ccc(-c2nc3ccccc3s2)cc1	-21	nt
32	Fc1ccc(N=Cc2ccsc2)cc1F	-14	-1.6

Exported with one line to a screen: entries from further up
25: CN(C)S(=O)(=O)c1cc(C(=O)Nc2nccs2)c(Cl)cc1Cl
26: COc1ccc(/C=C2/N=C(c3ccccc3)OC2=O)s1
27: c1ccc2c(CNn3cnnc3)cccc2c1
28: Cc1[nH]nc2ncc(C(=O)c3ccccc3O)cc12

screen / no.	25	26	27	28
S aureus helic	9	nt	14	-5
MgrA-DNA mod	nt	1.6	3.0	nt

Four entries from above, arranged by count of non-hydrogen atoms, descending.
nr	molecule	S aureus helic	MgrA-DNA mod
25	CN(C)S(=O)(=O)c1cc(C(=O)Nc2nccs2)c(Cl)cc1Cl	9	nt
29	C=C1SC(Nc2c(C)cccc2C)=NC12CCCCC2	nt	-2.2
27	c1ccc2c(CNn3cnnc3)cccc2c1	14	3.0
31	c1ccc(-c2nc3ccccc3s2)cc1	-21	nt

Laid out differently: 2 of the compounds above
no. | S aureus helic | MgrA-DNA mod | Compound
26 | nt | 1.6 | COc1ccc(/C=C2/N=C(c3ccccc3)OC2=O)s1
27 | 14 | 3.0 | c1ccc2c(CNn3cnnc3)cccc2c1

(next part)
nr	molecule	S aureus helic	MgrA-DNA mod
33	S=c1[nH]cnc2sc(-c3ccccc3)cc12	-14	nt
34	COc1ccc(C2(NC(=O)c3ccc(Cn4cc(Cl)cn4)o3)CCCCC2)cc1	6	0.1
35	CCNc1nc(N)nc(Sc2ccc(C(=O)OC)cc2)n1	7	nt
36	CCCSc1nnc2c3ccccc3n(Cc3ccccc3)c2n1	5	-0.9
37	Clc1ncnc2ccsc12	7	nt
38	Cc1ccc(N(C(=O)c2cccs2)C2C=CS(=O)(=O)C2)cc1 (centres undefined)	12	nt
39	c1ccc(-n2cc(-c3nc4ccccc4[nH]3)c(-c3ccco3)n2)cc1	-5	nt
40	CCC(=O)c1ccccc1OCCCn1cnc2ccccc2c1=O	0	-0.9

More structures:
nr	molecule	S aureus helic	MgrA-DNA mod
41	CCOC(=O)C(=O)c1c(O)[nH]c2ccccc12	6	nt
42	CC(=O)OCC(=O)[C@@]1(O)CCC2C3CCC4=CC(=O)CC[C@]4(C)[C@@]3(F)[C@@H](O)C[C@@]21C (some centres undefined)	nt	2.0
43	CN1CCN(S(=O)(=O)c2ccc(C(N)=O)cc2)CC1	7	-0.9
44	O=C(COC(=O)c1ccc(CN2CCCC2=O)cc1)Nc1ccc(F)cc1	3	nt
45	CCOc1ccc(NC(=O)Cn2ccc3c(OCC(=O)OC)cccc3c2=O)cc1	-2	nt
46	O=C(NC1CCN(C(=S)NCc2ccco2)CC1)NC12CC3CC(CC(C3)C1)C2	10	16
47	COc1cccc(NC(=O)CN(C)C(=O)C2CC3C=CC2C3)c1 (centres undefined)	-4	nt
48	CC(=O)OCCNc1ccc2noc3c2c1C(=O)c1ccccc1-3	-95	nt

(listing goes on)
nr	molecule	S aureus helic	MgrA-DNA mod
49	CCOC(=O)N1CCN(CC(O)COc2cc(C)cc(C)c2)CC1 (centres undefined)	-30	nt
50	Cn1c(NC(=O)c2cc(F)c(F)cc2Cl)nc2ccccc21	9	-5.2
51	O=C(O)/C=C/c1ccc(N2C(=O)CC(Cc3ccccc3)C2=O)cc1 (centres undefined)	-17	3.6
52	CCC/C=C/C(=O)Nc1ccc(C)cc1	25	nt
53	N#C/C(=C\c1ccsc1)S(=O)(=O)c1ccc(F)cc1	19	0.5
54	O=C(O)C1=NN(c2ccccc2)C(=O)C1	2	3.0
55	COc1ccc(-c2c(C)nn3c(N4CCN(c5ccccn5)CC4)cc(C)nc23)cc1OC	7	nt
56	CCc1ccc(CN(C)C(=O)c2ccc3c(c2)OCO3)cc1	-10	nt

Along the list, from the results shown.
S aureus helic for entries 51 to 55, in order: -17, 25, 19, 2, 7

More results
nr	molecule	S aureus helic	MgrA-DNA mod
57	CCSc1nnc(NC(=O)CN2C(=O)C3CC=CCC3C2=O)s1 (centres undefined)	19	nt
58	Cc1ccc2oc(=O)c3cc(C(=O)NCCN4CCN(C)CC4)sc3c2c1	14	nt
59	C=CCn1c(O)c(C2=c3ccccc3=NC2=O)sc1=S	15	0.1
60	CCOC(=O)C1CCN(C2CC(=O)N(c3ccc(NC(C)=O)cc3)C2=O)CC1 (centres undefined)	-3	-0.2
61	O=[N+]([O-])c1cc(Cl)c(-n2cccc2)cc1N1CCOCC1	nt	-0.5
62	Nc1ncc(C2(O)C(=O)Nc3c(Br)cc(F)cc32)s1 (centres undefined)	-3	nt
63	Cn1c(=O)c2sccc2n2c(CCCC(=O)NCCc3ccc(Cl)cc3)nnc12	10	nt
64	Cc1ccc(-n2nc(C(F)(F)F)cc2-c2cccs2)cc1	nt	1.2

Later entries.
nr	molecule	S aureus helic	MgrA-DNA mod
65	Cc1nc(COC(=O)c2c(C)nn(-c3ccccc3)c2C)cs1	-8	nt
66	CSc1ncc(C(=O)NCc2ccco2)c(C(F)(F)F)n1	-23	nt
67	CCCN(Cc1nnc(-c2ccccc2Cl)o1)C(=O)c1c(F)cccc1Cl	-4	nt
68	O=C(Cn1c(C(=O)N2CCN(C(=O)c3ccco3)CC2)cc2sccc21)c1ccccc1	-5	-1.5
69	CC1=NN(c2ccc(N)cc2)C(=O)C1	-5	1.9
70	Cc1ccc2[nH]c(C)c(CN(C)C)c(=O)c2c1	-17	nt
71	Cc1cc(C)n(-c2ccc(SCc3ccc(Cl)cc3)nn2)n1	nt	0.1
72	CCCC(=O)c1ccc(N=Cc2ccc(Cl)cc2Cl)cc1	11	-1.4

Next part:
Results follow in this order: S aureus helic, MgrA-DNA mod
73. O=C1CCCN1CP(=O)(O)CCc1ccccc1
→ 7, -1.8
74. Cc1nc(-c2cccc(NS(=O)(=O)c3cccs3)c2)cs1
→ -8, nt
75. COc1ccc(CCNS(=O)(=O)N(C)C)cc1
→ 5, -1.3
76. O=C1CNC(=S)N1CCCn1ccnc1
→ nt, 0.5
77. CCOC(=O)c1ccc(-c2ccc(Cl)cc2)s1
→ nt, 2.5
78. O=C(O)C12CC3CC(CC(Cl)(C3)C1)C2
→ nt, -1.4
79. COc1ccc(OC)c(NC(=O)C2C3C=CC(C3)C2C(=O)NCc2cccnc2)c1 (centres undefined)
→ -11, 2.5
80. CC1CCCC(NC(=O)CN(C)S(=O)(=O)c2cnc[nH]2)C1C (centres undefined)
→ -5, nt
81. Cc1cc(N2CC(C)CC(C)C2)nc2ccc(NC(=O)CCC(=O)NCc3ccco3)cc12 (centres undefined)
→ -20, nt
82. Cc1csc(=Nc2ccccc2)n1C1CCCC1
→ 32, nt
83. O=C(c1ccc2ccccc2n1)N1CCOCC1
→ 7, nt
84. CN1CCN(c2nc(-c3ccccc3)c3cc(Cl)ccc3n2)CC1
→ nt, -1.2
85. CCOC(=O)C1=NNC2C(=O)NC(=O)C12 (centres undefined)
→ -20, 1.5
86. O=C1CC(Nc2ccc(N3CCOCC3)cc2)C(=O)N1Cc1ccccc1 (centres undefined)
→ 12, nt
87. CCc1cccc(C)c1NC(=O)N(Cc1ccccc1)C(C)C
→ nt, 4.3
88. COC(=O)CN1C(=O)COc2ccc(C)cc21
→ 7, -1.9
89. NS(=O)(=O)c1ccc(CCNC(=O)c2ccccc2C(F)(F)F)cc1
→ -4, -0.8
90. COc1cc([N+](=O)[O-])ccc1N=Cc1nc(-c2ccc(Br)cc2)oc1O
→ nt, -3.1
91. Cc1ccc(N(C(=O)c2cccc(F)c2)C2C=CS(=O)(=O)C2)cc1 (centres undefined)
→ -7, nt
92. Cc1ccc2c(c1)C(c1ccccc1)N(C(=O)C1CC1)CC(=O)N2 (centres undefined)
→ 11, nt
93. O=C(Nc1ccccc1C(=O)N1CCCCCC1)c1cccc(S(=O)(=O)N2CCCCCC2)c1
→ 6, 1.2
94. Cc1ccc(/C(O)=C/c2nc3ccccc3[nH]c2=O)cc1C
→ -94, 23
95. Cc1cc2c(=O)n(CC(=O)Nc3ccccc3)cnc2s1
→ 21, 4.5
96. O=S(=O)(CCN1CCN(Cc2ccccc2)CC1)c1ccc(Cl)cc1
→ nt, -1.4
97. CCOC(=O)c1c(C)oc2ncnc(N3CCOCC3)c12
→ -23, nt
98. OC(c1cccc(OCc2ccccc2)c1)c1nnc(-c2ccccc2)o1 (centres undefined)
→ -2, nt
99. CC(=O)Nc1cccc(-c2nnc3n2CC(C)S3)c1 (centres undefined)
→ -2, -4.9
100. CC(C)NC(=S)Nc1ccccn1
→ -3, nt
101. O=C(CC(c1ccccc1)c1ccccc1)Nc1ncn[nH]1
→ 6, 0.1
102. COc1ccc(CN2CC(C(=O)NCCc3ccccc3)CC2=O)cc1 (centres undefined)
→ 17, nt

Next part.
Results follow in this order: S aureus helic, MgrA-DNA mod
103. c1ccc(C2=NC3(CCCC3)N=C2c2ccccc2)cc1
→ 6, -1.8
104. CCNc1nc(NCC)nc(C(N)=O)n1
→ 2, -0.4
105. O=C(CSCc1c[nH]c2ccccc12)Nc1ccc2ccccc2c1
→ -3, -2.8
106. N/C(=N\OC(=O)Nc1ccccc1)c1ccno1
→ 6, nt
107. SCCCCOc1ccccc1Br
→ 12, 1.6
108. COc1ccc(N=Cc2ccccc2F)cc1
→ 12, 3.3
109. Nc1nc(N)nc(-c2ccccc2Cl)n1
→ nt, -4.6
110. NNC(=O)Cc1nn2c(C3CCCCC3)nnc2s1
→ 2, nt
111. O=C(CN1CC(=O)Oc2ccccc21)Nc1ccc(O)cc1
→ 15, 5.8
112. CSc1ccccc1NC(=O)CN(C)C(=O)c1ccc(S(=O)(=O)N(C)C)cc1
→ -7, nt
113. CC1=C(C(=O)OCCOc2ccccc2)C(c2cccnc2)C2=C(CC(c3ccc(Cl)cc3)CC2=O)N1 (centres undefined)
→ nt, -1.9
114. Cn1nnnc1SCC(=O)NC1CC1
→ 8, nt
115. COc1cccc(N2CCN(S(=O)(=O)c3ccc4c(c3)N(C(C)=O)CCO4)CC2)c1
→ -15, nt
116. Nc1nnc(SCCCCOC2CCCCO2)s1 (centres undefined)
→ nt, 1.0
117. CC(=O)N1c2ccccc2N(C(C)=O)C(C)C1C (centres undefined)
→ -5, -3.5
118. O=C(NCc1ccco1)c1csc2c1CCCC2
→ -14, nt
119. CCc1ccc(N2CCN(S(=O)(=O)c3ccccc3)CC2)cc1
→ 3, 0.2
120. CCn1c(CSc2nc3ccccc3s2)nnc1SC(C)C(=O)Nc1ccc(N(C)C)cc1 (centres undefined)
→ -11, nt
121. COC(=O)C1=CN(CC23CC4CC(CC(C4)C2)C3)C=C(C(=O)OC)C1c1cccs1
→ 3, -1.9
122. COc1cc(S(=O)(=O)N2CC(C)OC(C)C2)c(OC)cc1Cl (centres undefined)
→ -1, 3.5
